Screening results: PubChem BioAssay, ICCB-Longwood Screening Facility, Harvard Medical School
CapD inh: Bacillus anthracis CapD inhibitors, primary screen, biochemical, fluorescence intensity; CapD gamma-glutamyltranspeptidase (Bacillus anthracis Ames Ancestor); purified CapD enzyme, fluorescence intensity read-out; active compounds read low; some hits fall short of the stated cut; z-score (concentration not given with the values); actives 0.23% (n = 140,000); AID 492967, 2010;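 active = z-score under -4 in either of two replicates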;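 also: stock transfer was 100 nL into about 40 µL; score is relative to mean and spread of the plate; one replicate is shown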
AID504770: growth inhibition of E. coli YBA685, primary screen, V. cholerae RctB inhibitors; z-score (concentration not given with the values); E. coli YBA685 rctB-dependent plasmid, OD600 growth, 3 h; active compounds read low; actives 0.27% (n = 130,000);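 active = z-score under -2 on both plates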;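 also: wells of about 30 µL received 100 nL stock; score is relative to mean and SD of the test wells; the first replicate is given; strong numbers were not always called active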
Numbers without * were called inactive; · = not tested or not shown; & = joins results of further samples. An excerpt; rates above refer to the full screens.

SMILES	CapD inh	AID504770
COc1ccc(CC(=O)NCC2(c3ccc(OC)c(OC)c3)CCCC2)cc1OC	-0.35	·
CC(=O)Nc1ccc2oc(=O)ccc2c1	18	-0.9
O=CNC(Cc1ccccc1)C(=O)O (stereo not given)	-2.9	0.15
O=C(CCC(=O)N1CCN(c2ccccn2)CC1)c1ccc(F)cc1	2.1	·
Cc1c(CCNC(NC(=O)c2ccc(Cl)cc2)(C(F)(F)F)C(F)(F)F)c2ccccc2n1C	0.025	-0.35
S=c1nc(Cc2ccc(Cl)cc2)[nH][nH]1	·	0.3
COC(=O)CSc1cc(C(F)(F)F)c(C(=O)Nc2ccc(Cl)cc2)cn1	-0.88	-0.8
c1cnc2c(CN3CCCC3)cccc2c1	0.45	-0.25
Cc1sc(-c2ccccn2)nc1OC(=O)c1cccc(Cl)c1Cl	0.08	·
O=C(Nc1cccc(Cl)c1)c1ccc2c(Cl)c3c(nc2c1)CCCC3	0.04	·
CCC(C)NC(=O)CC12CC3CC(C1)CC(CC(=O)NC(C)CC)(C3)C2 (stereo not given)	-0.17	-0.5
COc1cc(/C=C2/SC(N)=NC2=O)ccc1OCc1ccc([N+](=O)[O-])cc1	0.16	·
CC(C)COc1ccc(-c2nnn(CC(=O)N3C(C)CCCC3C)n2)cc1 (stereo not given)	·	0.55
C=CCN(C(=O)c1ccc(N2CC3CC(C2)c2cccc(=O)n2C3)c(NC(=O)c2ccc(OC)cc2)c1)c1ccccc1 (stereo not given)	-0.49	·
CCN1C(=O)N(CC)C2C1N(C(C)=O)C(=O)N2C(C)=O (stereo not given)	0.46	·
CCCCNC(=O)c1sc2ncn(CCOCC)c(=O)c2c1C	45	·
CCOC(=O)c1ccc(-c2ccc3c(c2)CCC3)nc1C	-0.22	0.1
CCN1Cc2cccc(CNc3ccc(C)c(Cl)c3)c2C1	3	-0.2
COc1c2ccoc2nc2c(OC)c(OC[C@H](O)C(C)(C)O)ccc12	88	-0.9
Cc1cccc(-n2c(CSCc3cccc4ccccc34)n[nH]c2=S)c1	0.03	·
COc1ccc(CN2C(=O)C(=O)N(Cc3ccc(Cl)cc3)C2=O)cc1OC	-0.66	·
COc1ccccc1N1CCN(C(=O)c2sc3nc(C)nc(N4CCN(c5ccccn5)CC4)c3c2C)CC1	-0.66	·
CCOc1ccccc1NC(=O)CCn1cnnn1	0.15	-1.1
COc1ccc2cc3[n+](cc2c1OC)CCc1cc2c(cc1-3)OCO2	0.37&-0.29	-0.25
N#CSc1ccc2nc(N)sc2c1	·	-1.4
CCOc1cc(-c2noc(N)c2C#N)cc(OCC)c1OCC	-0.05	1.7
CCC(C)(C)c1cnc(NC(C)=O)s1	-0.24	-0.2
CCc1c(C)[nH]n2cnnc2c1=O	0.24	-0.4
COc1cc(OC)nc(C(Sc2ccc(NS(=O)(=O)c3ccc(C(C)(C)C)cc3)cc2)c2ccccc2)n1 (stereo not given)	-0.52	·
O=P(O)(c1ccccc1)C1CCCCN1 (stereo not given)	-0.17	-0.6
CCOc1ccccc1N(CC)C(=O)Cn1ncc2c(=O)oc3ccccc3c21	0.055	-0.05
O=C(COC(=O)c1cn(-c2ccccc2)nc1-c1ccccc1)c1ccc(Br)cc1	0.6	0.7
CCCc1ccc(-c2ccc(-c3[nH]ncc3-c3ccc(Cl)cc3)cc2)c(F)c1	14	·
CC(NCCN1CCNCC1)c1cc(C(C)(C)C)cc2c1CCC2(C)C (stereo not given)	0.27	-1
Clc1ccc(Cn2c(/C=C/c3ccccc3Cl)nc3ccccc32)cc1	69	·
Cc1nc2nc[nH]n2c(=O)c1Br	-0.28	·
CCNC(=S)N1CCN(C(=O)C(Cc2ccccc2)NC(C)=O)CC1 (stereo not given)	·	0.1
Cc1nnc2sc(SCc3ccccc3)nn2c1=O	-1.2	-0.05
COc1ccc(C2C(C#N)=C(N)N(c3ccc(Br)cc3)C3=C2C(=O)CCC3)cc1 (stereo not given)	-0.14	·
Cc1ccc(NC(=O)C2CCCN(S(=O)(=O)c3ccc4[nH]c(=O)ccc4c3)C2)nc1 (stereo not given)	2.6	1.6
CN1N=C(c2ccccc2)CC1=O	-0.33	-1.4
Cc1nnc(Nc2ccc(F)cc2)c2ccccc12	-1.1	1.8
CC(C)(C)NC(=O)Cc1n[nH]c(=O)c2ccccc12	·	0.1
CCN(CC)CCCNc1ncnc2sc3c(c12)CC(C)CC3 (stereo not given)	-0.32	-1
Nc1ccc(Cn2ccnc2)cc1	·	-0.3
O=C(Cc1ccccc1)Nc1nc(-c2cccs2)cs1	·	0.35
CCCCCCOc1ccc(C(c2c(C)[nH]n(-c3ccccc3)c2=O)c2c(C)[nH]n(-c3ccccc3)c2=O)cc1	0.02	·
CCOC(=O)c1ccc(N(C)C)cc1	-1	0.6
COC(=O)c1cc(S(=O)(=O)NCC2CCCO2)c[nH]1 (stereo not given)	-0.86	-0.8
CC1CC(Nc2ccccc2)c2ccccc2N1C(=O)c1cccc(Cl)c1 (stereo not given)	-0.69	·
OC(CN1CCN(Cc2ccc3c(c2)OCO3)CC1)Oc1ccc(C(F)(F)F)cc1 (stereo not given)	0.8	-0.25
Brc1ccc(-c2cn3ccc4ccccc4c3n2)cc1	3.6	·
CCOC(=O)c1cc2cc(Br)cc(Br)c2oc1=O	0.075	·
Cc1ccc2c(c1)c(=O)c1ccccc1n2CC(=O)N1CCN(c2ccc(F)cc2)CC1	0.24	·
COCCN=c1scc(-c2ccc(O)c(C(N)=O)c2)n1/N=C/c1cccnc1	·	-1.1
COC(=O)c1ccc(Oc2c(C(F)(F)F)oc3cc(O)ccc3c2=O)cc1	-0.44	-0.45
O=C1CCc2ccccc2N1	·	0.15
CCOc1ccc(NC(=O)CN2C(=O)c3cccc4cccc2c34)cc1	-0.24	0.15
O=C(O)C(NS(=O)(=O)c1cccc2nsnc12)c1ccccc1 (stereo not given)	-0.14	-0.2
Nc1c2c(nc3c1CCC3)CCCC2	·	-0.1

Next section
SMILES	CapD inh	AID504770
N#Cc1ccc(Oc2ccc(N3C(=O)CCC3=O)cc2)cc1	-0.055	-0.4
CC(c1ccccc1)N1CCC(CN)C1 (stereo not given)	-0.02	-0.5
O=C(NCC1CCCO1)c1cnn2c(C(F)(F)F)cc(-c3ccccc3)nc12 (stereo not given)	-0.26	-0.25
CCC(C)(C)NC(=O)Cc1cccs1	0.67	-0.3
O=[N+]([O-])c1ccc(NCCc2ccccn2)nc1	-1	·
CCN(CC)C(=O)Oc1nc(-c2ccccn2)nc(COC)c1CC1CC1	1	-0.5
CCOC(=O)c1nc(NC2CCN(Cc3ccccc3)CC2)c2ccccc2n1	0.34	-0.55
Cc1ccc(-c2ccc(/C=c3\sc4nc5ccccc5n4c3=O)o2)c(Br)c1	0.08	·
CCOC(=O)C1=C(C)N=c2s/c(=C\c3cc(OC)c(OC)cc3[N+](=O)[O-])c(=O)n2C1c1ccc(OC)cc1 (stereo not given)	-0.18	·
Cc1noc(/C=C/c2ccc(-c3ccc(Cl)cc3Cl)o2)c1[N+](=O)[O-]	0.06	·
Cc1ccc(S(=O)(=O)CCSc2n[nH]c(=O)n2-c2ccc3c(c2)OCCO3)cc1	0.85	1.3
O=C1N=c2ccc(Br)cc2=C1c1sc(=S)n(-c2ccc(C(=O)O)cc2)c1O	-0.15	·
FC(F)(F)Oc1ccc(C2c3ccsc3CCN2Cc2c[nH]c3ccccc23)cc1 (stereo not given)	-0.62	-0.85
COc1cc(C=C2C(=O)NC(=O)NC2=O)ccc1OCC(C)C	0.94	-1
C[C@H]1O[C@@H](O[C@H]2[C@@H](O)C[C@H](O[C@H]3[C@@H](O)C[C@H](O[C@H]4CC[C@]5(C)C6C[C@@H](O)[C@]7(C)[C@@H](C8=CC(=O)OC8)CC[C@]7(O)C6CC[C@@H]5C4)O[C@@H]3C)O[C@@H]2C)C[C@H](O)[C@@H]1O (stereo not given in full)	-1.1	0.15
COc1cccc(NC(=O)c2cc3cc4c5c(c3oc2=N)CCCN5CCC4)c1	-0.3	0.2
CS(=O)(=O)c1ccc(-n2cc(-c3ccc(C(=O)N4CCCCC4)cn3)cn2)cc1	0.12	·
Cn1c(SCc2cccc(C(F)(F)F)c2)nc(C(F)(F)F)cc1=O	-0.49	·
COc1ccc(C2(CNS(=O)(=O)c3ccc(C)cc3)CCOCC2)cc1	3.2	-0.95
CSC1=NCCN1Cc1ccccc1	-0.17	0.6
CC1Cc2ccccc2N1C(=O)CCS(=O)(=O)c1cc2c(cc1Cl)NC(=O)CO2 (stereo not given)	0.46	-0.95
COCc1c(C(=O)N2CCN(CCOc3ccccc3)CC2)oc2ccccc12	·	-0.55
COc1ncnc2c1sc1ncccc12	1.2	0.55
O=S(=O)(NC1CCCCC1Sc1ncccn1)c1ccccc1 (stereo not given)	·	-0.95
O=C(CCN1N=C(c2ccccc2)CCC1=O)NCCc1ccccc1	5.7	-0.4
CC(C)(C)OC(=O)NC1CCN(C(=O)c2ccccc2)CC1	-0.56	·
O=C(Nc1ccc(F)c(Cl)c1)c1cc(S(=O)(=O)N2CCC3(CC2)OCCO3)ccc1F	0.045	0.9
CCN(CC)c1nc(-c2ccccc2)c2cc(Cl)ccc2n1	·	0.4
CCOC(=O)c1c(C=O)oc2c(C)cc(OC(=O)c3cccc(OC)c3)c(Br)c12	-0.12	·
Cc1ccccc1Nc1c(-c2ccsc2)nc2c[n+](CC(N)=O)ccn12	-0.7	-0.65
COc1ccc(CCNC(=O)c2cc(-c3ccco3)on2)cc1OC	0.38	0.55
Cn1cc(CC(=O)NCCN2CCN(Cc3ccccc3)CC2)c2ccccc21	0.11	1.2
OC(CNC1CCc2ccccc21)COc1ccc(-c2csnn2)cc1 (stereo not given)	0.49	-0.5
COc1ccc(C2CC(=O)C3=C(C2)NC(C)=C(C(=O)OCCOc2ccccc2)C3c2ccc3c(c2)OCO3)cc1 (stereo not given)	41	·
Cc1cccc(N2CCN(C(=O)COc3ccc(C#N)cc3)CC2)c1C	0.97	0.4
O=C(CNc1ccccc1)N/N=C/c1ccc(O)cc1	·	-0.55
CCCN(CCC)C(=O)/C=C/c1ccc(OC)c(OC)c1	7.5	-0.2
COc1ccc(CCN(C)CCC(=O)Nc2c(C)cc(C)cc2C)cc1OC	-0.12	-0.55
O=C1c2cccnc2C(=O)N1Cc1ccc(S(=O)(=O)Nc2ccc(F)cc2)s1	3.9	1.1
CCN(CC)C(=O)N1c2ccccc2Sc2ccccc21	·	-0.4

In the list so far, 8 have bromine:
SMILES	CapD inh	AID504770
O=C(COC(=O)c1cn(-c2ccccc2)nc1-c1ccccc1)c1ccc(Br)cc1	0.6	0.7
Cc1nc2nc[nH]n2c(=O)c1Br	-0.28	·
COc1ccc(C2C(C#N)=C(N)N(c3ccc(Br)cc3)C3=C2C(=O)CCC3)cc1 (stereo not given)	-0.14	·
Brc1ccc(-c2cn3ccc4ccccc4c3n2)cc1	3.6	·
CCOC(=O)c1cc2cc(Br)cc(Br)c2oc1=O	0.075	·
Cc1ccc(-c2ccc(/C=c3\sc4nc5ccccc5n4c3=O)o2)c(Br)c1	0.08	·
O=C1N=c2ccc(Br)cc2=C1c1sc(=S)n(-c2ccc(C(=O)O)cc2)c1O	-0.15	·
CCOC(=O)c1c(C=O)oc2c(C)cc(OC(=O)c3cccc(OC)c3)c(Br)c12	-0.12	·

(cont.)
SMILES	CapD inh	AID504770
CC(Cn1c(=S)[nH]c2c(oc3ccccc32)c1=O)c1ccccc1 (stereo not given)	0.34	0.9
CC(=O)Nc1ccc(C2CCCCC2)cc1	-0.51	·
CC(C)c1cc(CN2CCN(CCC#N)CC2)cc(C(C)C)c1O	-0.66	-0.7
O=C(c1ccc2cc[nH]c2c1)N1CCN(c2ccc(F)cc2)CC1	0.33	·
COc1cc(OC)c(NC(=O)N2CCC(CN3CCc4ccccc4C3)CC2)cc1Cl	0.34	0
C=CCOc1ccc(NC(=O)c2ccc(C)cc2)cc1	0.075	0.55
CC(C)NC(=O)N1CCn2cccc2C1C(C)C (stereo not given)	-0.22	-1.6
CCOc1ccc2nc(NC(=O)Cc3nn(C)c(=O)c4ccccc34)sc2c1	-0.24	·
CCOC(=O)c1c(C)noc1CP(=O)(c1ccccc1)c1ccccc1	·	-0.6
Cn1c2c(c3ccccc31)/C(=N/OC(=O)c1cccc(C(F)(F)F)c1)CCC2	-0.03	·
Cc1ccc(-c2coc3cc4oc(=O)c5c(c4cc23)CCC5)cc1	2.1	-0.8
CCc1ccc(O)c(C(=O)c2cnc3onc(C(C)C)c3c2)c1	·	0.15
CCCCn1c(SCC(=O)NCc2cccs2)nnc1C(CC)N(C)C (stereo not given)	·	-0.2
c1nc(Oc2ccc(-c3nnco3)cc2)c2c3c(sc2n1)CCCC3	·	0.4
COc1ccc(C2Nc3ccc4ncccc4c3C3=C2C(=O)CC(C)(C)C3)cc1OC (stereo not given)	32	·
COc1cc(C=O)ccc1Oc1nc(N2CCOCC2)nc(N2CCOCC2)n1	0.16	·
Cc1cc(C)nc(N/C=C(\C#N)S(=O)(=O)c2ccc(Cl)cc2)n1	-0.26	-0.4
COc1cc(C(c2c(C)[nH]n(-c3ccccc3)c2=O)c2c(C)[nH]n(-c3ccccc3)c2=O)cc(OC)c1OC	-0.72	·
O=C(CN1CCSc2ccccc21)Nc1ccc(N2CCOCC2)cc1	·	0.35

Retrieved by compound from the list above (4):
SMILES	CapD inh	AID504770
C=CCOc1ccc(NC(=O)c2ccc(C)cc2)cc1	0.075	0.55
CCCCn1c(SCC(=O)NCc2cccs2)nnc1C(CC)N(C)C (stereo not given)	·	-0.2
COc1cc(OC)c(NC(=O)N2CCC(CN3CCc4ccccc4C3)CC2)cc1Cl	0.34	0
COc1cc(C(c2c(C)[nH]n(-c3ccccc3)c2=O)c2c(C)[nH]n(-c3ccccc3)c2=O)cc(OC)c1OC	-0.72	·
